Compound activity: PubChem BioAssay, Johns Hopkins Ion Channel Center
KCNQ2 inh: KCNQ2 potassium channel inhibitors, primary screen, cell-based, CHO-K1, FluxOR thallium flux, B-score (AID 2156); 20 min; stronger effect = lower value; only compounds with negative scores are shown here; some inactives read as strong as hits; 310,000 tested, 1.1% active; O88943; B-score at 10 µM;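 active = fluorescence ratio B-score at most minus 3 library SDs, with starting brightness B-score within 2 library SDs, cut at about -5.5 in these data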
Target sequence (O88943 whole entry, looked up): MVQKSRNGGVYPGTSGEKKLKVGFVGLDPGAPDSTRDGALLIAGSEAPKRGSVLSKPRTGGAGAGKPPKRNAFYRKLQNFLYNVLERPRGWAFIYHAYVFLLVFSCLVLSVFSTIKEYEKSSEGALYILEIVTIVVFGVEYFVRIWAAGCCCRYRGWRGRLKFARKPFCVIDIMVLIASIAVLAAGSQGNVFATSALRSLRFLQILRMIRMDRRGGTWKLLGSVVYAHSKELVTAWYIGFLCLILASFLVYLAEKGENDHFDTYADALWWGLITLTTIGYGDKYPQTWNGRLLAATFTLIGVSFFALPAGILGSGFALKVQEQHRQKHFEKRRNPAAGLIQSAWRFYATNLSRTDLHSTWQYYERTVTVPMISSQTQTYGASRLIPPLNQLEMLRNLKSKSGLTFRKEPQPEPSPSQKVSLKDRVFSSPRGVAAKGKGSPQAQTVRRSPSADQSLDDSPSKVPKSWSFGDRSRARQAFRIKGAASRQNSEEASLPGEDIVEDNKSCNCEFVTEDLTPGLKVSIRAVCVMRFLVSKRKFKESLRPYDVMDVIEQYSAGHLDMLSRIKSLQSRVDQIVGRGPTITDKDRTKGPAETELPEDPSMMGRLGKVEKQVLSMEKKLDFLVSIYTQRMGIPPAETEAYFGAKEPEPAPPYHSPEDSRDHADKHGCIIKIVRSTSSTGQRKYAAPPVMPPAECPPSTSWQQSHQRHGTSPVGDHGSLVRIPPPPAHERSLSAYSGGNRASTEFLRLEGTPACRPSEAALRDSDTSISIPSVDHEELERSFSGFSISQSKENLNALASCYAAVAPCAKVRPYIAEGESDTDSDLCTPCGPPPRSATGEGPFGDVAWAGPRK
KCNQ2 inh baseline: further read-out of KCNQ2 inh, marked with its call; B-score; measured here: initial fluorescence intensity artifact check;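 brightness before thallium and not channel activity; 0 = typical well and far values either way flag optical interference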
The depositor's hits bear a star; i = inactive.

molecule	KCNQ2 inh baseline	KCNQ2 inh
Cc1cccc(C(CC(=O)N2CCCCC2)c2ccccc2)c1O (stereo not drawn)	0.81	i
CCN(CC)c1nc(-c2ccccc2)ncc1S(=O)(=O)c1ccc(C)cc1	-0.48	i
c1ccc(-c2ncc3c(ccc4ccccc43)n2)cc1	0.03	i
CCOc1ccccc1CNS(=O)(=O)c1cc(-c2cc(C)no2)ccc1OC	-1.56	i
COc1ccc(C(C(=O)NCC2CCCO2)N(C(=O)CNC(=O)c2ccco2)c2cc(C)cc(C)c2)cc1OC (stereo not drawn)	-0.27	i
CCn1cc(C(=O)Nc2ccc(-n3cnnn3)c(OC)c2)c(=O)c2ccc(C)nc21	0.52	i
CCOc1ccc(OCC)c(-c2c(=O)n(OCc3ccccc3C(=O)OC)c3ccccc3[n+]2[O-])c1	-1.42	i
COc1ccc(NS(=O)(=O)c2cccc(C(=O)NCC(c3ccc(OC)cc3)N3CCOCC3)c2)cc1 (stereo not drawn)	-0.48	i
C1CCCC(N2CCNCC2)CC1	0.11	i
COc1ccc(C(=O)N2CCC(n3c(C)nc4cc(F)ccc43)CC2)cc1OC	-1.49	i
COc1ccc(/C=N/NC(=O)c2ccc(COCC(F)(F)C(F)F)cc2)cc1	1.32	i
CCc1ccccc1NC(=O)Nc1cccn(Cc2ccc(F)cc2)c1=O	0.92	i
Cc1ccc(/C=C2/Sc3ccccc3N(CC(=O)NCC3CCCO3)C2=O)cc1 (stereo not drawn)	-0.07	i
NC(=O)c1nc(N2CCOCC2)nc(N2CCOCC2)n1	-0.4	i
O=C(Nc1ccc2ccccc2c1)c1cnccn1	1.86	i
COc1ccc(CCNC(=O)CCC(=O)n2ncc3cc(C)ccc32)cc1OC	-0.68	i
COc1ccc2cc3cc(C(=O)NCCCN4CCOCC4)oc3nc2c1	1.16	i
O=C(Nc1cccc([N+](=O)[O-])c1)NC1CCCCCCC1	0.39	i
COc1cccc(CNC(=O)CCCNC(=O)c2ccc(Cl)cc2)c1	-0.97	i
O=C(CCCCCn1c(=S)[nH]c2ccccc2c1=O)N1CCOCC1	0.46	i
CN(Cc1ccc(N(C)C)cc1)C(=O)c1cc2ccccc2o1	-2.14	i
O=Cc1c(-c2ccc(Cl)cc2)oc2ccc(O)cc12	0.22	i
Cc1nn(CC2CC2)c(=O)n1-c1ccc(C(C)C)cc1	1.66	i
Oc1ccccc1C=Nc1ccccc1-c1nc2ccccc2[nH]1	0.01	i
CNC(=S)N(CCc1c(C)[nH]c2ccc(OC)cc12)Cc1cccnc1	-1.35	i
C=CCOc1ccc(C2N3CC4(CC)CN2CC(CC)(C3)C4=O)cc1 (stereo not drawn)	-0.38	i
COc1ccc(CCN(C)c2ccc(S(=O)(=O)N3CCCC3)cn2)cc1OC	-0.36	i
CCOC(=O)CC1CCCCN1C(=O)c1ccc2oc(CCc3ccccc3)nc2c1 (stereo not drawn)	-0.75	i
Cc1ccc(N(CC(=O)NC2CCCC2)C(=O)c2c(C)noc2C)cc1C	-0.37	i
Cc1nn(C(C)C)c(C)c1CN1CCC(C(=O)Nc2cccc(-c3cccc(F)c3)c2)CC1	-1.22	i
CCOC(=O)C1CCN(C(=O)c2ccc(CNS(=O)(=O)c3ccc(C)cc3)cc2)CC1	0.62	i
Cc1cc(N2CCN(C)CC2)nc2ccc(NC(=S)NCCN3CCc4ccccc4C3)cc12	-1.95	i
Cc1ccc(NC(=S)N2CCN(S(C)(=O)=O)CC2)cc1Cl	1.15	i
CCOc1ccc2c(c1)/C(=N/N1C(=O)c3ccccc3C1=O)C(=O)N2	-0.71	i
Cc1ccc(C(C)C)c(OCCSc2nc3ccccc3n2CC(=O)O)c1	-1.12	i
CC(CCc1ccccc1)NCc1ccncc1 (stereo not drawn)	0.69	i
Cc1ccccc1NS(=O)(=O)c1ccc2oc(=O)ccc2c1	-1.01	i
COc1ccc(NC(=O)c2nc(-n3nc(C)cc3C)ccc2Cl)cc1Cl	-0.48	i
Cc1cccc(C(=O)NC(C)C2CC3CCC2C3)c1 (stereo not drawn)	-0.14	i
O=C(COC(=O)c1cn(-c2ccccc2)nc1-c1ccccc1)c1cccc([N+](=O)[O-])c1	-1.21	i
CC(OC(=O)COc1ccc(C#N)cc1)C(=O)Nc1ccc(Cl)cn1 (stereo not drawn)	0.16	i
O=C(COC(=O)c1n[nH]c(=O)c2ccccc12)c1ccc(Cl)cc1	0.69	i
Cn1nnnc1SCC(=O)N(C1CCCCC1)C1CCCCC1	-0.39	i
O=C(NCCS(=O)(=O)NCc1ccccn1)c1ccccc1	2.26	i
CCOc1ccccc1NC(=O)CSc1nc2ccccc2nc1N1CCOCC1	1.28	i

A different layout for 5 compounds above.
KCNQ2 inh baseline	KCNQ2 inh	canonical_smiles
0.69	i	O=C(COC(=O)c1n[nH]c(=O)c2ccccc12)c1ccc(Cl)cc1
0.62	i	CCOC(=O)C1CCN(C(=O)c2ccc(CNS(=O)(=O)c3ccc(C)cc3)cc2)CC1
0.16	i	CC(OC(=O)COc1ccc(C#N)cc1)C(=O)Nc1ccc(Cl)cn1 (stereo not drawn)
-1.12	i	Cc1ccc(C(C)C)c(OCCSc2nc3ccccc3n2CC(=O)O)c1
-1.21	i	O=C(COC(=O)c1cn(-c2ccccc2)nc1-c1ccccc1)c1cccc([N+](=O)[O-])c1

Continued.
molecule	KCNQ2 inh baseline	KCNQ2 inh
Cn1c(=O)c2c(nc(Oc3cccc(O)c3)n2C)n(C)c1=O	0.78	i
O=C(COC(=O)c1cc([N+](=O)[O-])ccc1N1CCOCC1)NC1CCS(=O)(=O)C1 (stereo not drawn)	-2.62	i
CCN(CC(=O)Nc1c(F)cccc1F)C(=O)c1ccc(C(F)(F)F)cc1	-0.15	i
COc1cccc(CN(c2ccc3c(c2)CCC3)S(=O)(=O)c2ccc(-n3cnnn3)c(OC)c2)c1	1.22	i
COc1ccc(N2CCN(c3oc(Cc4cccc5ccccc45)nc3C#N)CC2)cc1	-0.48*	-6.95*
Cc1ccc(N(CC(=O)N2CCN(Cc3ccccc3)CC2)S(C)(=O)=O)cc1C	0.02	i
CC(C)[C@H](NC(=O)c1cccc(CN(Cc2ccccc2)C(=O)c2ccccc2)c1)C(=O)O	0.58	i
CS(=O)(=O)c1ccc(CNC(=O)[C@]2(C(F)(F)F)C[C@H](CCc3ccccc3)CCCO2)cc1	-0.67	i
COc1ccc(N2CCN(C(=O)NCc3cccc(OC)c3)CC2)cc1	-0.3	i
COc1ccccc1-n1c(SCC(=O)Nc2ccccc2C)nc(O)cc1=O	-1.65	i
CCOCCCNC(=O)c1cc(Sc2nnc(C)s2)nc2ccccc12	0.43	i
N#Cc1c(-c2ccccc2)nc(SCC(=O)Nc2ccc(OC(F)(F)Cl)cc2)[nH]c1=O	-0.78	i
Cc1ccc(NC(=S)N(Cc2cccs2)Cc2cc3cc(C)cc(C)c3[nH]c2=O)cc1	-2.52	i
COC(=O)[C@H]1C[C@H]1[C@@H](NC(=O)c1cccnc1)c1ccccc1	2.54	i
CC(C)C[C@H](NC(=O)C1CCN(S(=O)(=O)c2ccccc2)CC1)C(=O)NCc1ccccn1	-0.16	i
Cc1ccc(N2CCN(S(=O)(=O)c3ccc4c(c3)NC(=O)C(C)C(=O)N4)CC2C)cc1 (stereo not drawn)	-0.91	i
COc1cccc(NC(=O)Cc2ccc(C)cc2)c1	1.43	i
CCn1c2ccccc2c2cc(NC(=O)c3cccc(OC)c3OC)ccc21	-0.02	i
CC1CCN(CC(O)COc2ccc(C(=O)c3ccccc3)cc2)CC1 (stereo not drawn)	0.88	i
CCC(C)N1C(=O)S/C(=C/c2ccc(N3CCOCC3)cc2C)C1=O (stereo not drawn)	-0.07	i
CCCN(CC1CC1)C(=O)COC(=O)c1[nH]c(C)c(C(=O)OCC)c1C	1.73	i
CC(C)c1ccc(N(C(=O)c2ccco2)C(C(=O)NC2CCCC2)c2ccncc2)cc1 (stereo not drawn)	0.9	i
CC(=O)N1CCN(C(=O)CSc2nc3c(cnn3-c3ccccc3)c(=O)[nH]2)CC1	-0.71	i
O=C(NC1(C(F)(F)F)NC(=O)N(Cc2cccnc2)C1=O)c1ccncc1 (stereo not drawn)	1.1	i
Cc1ccc(C(=O)OCC(=O)N(CC(C)C)c2c(N)n(Cc3ccccc3)c(=O)[nH]c2=O)s1	-1.3	i
Cn1nnnc1SCC(=O)Nc1cc(C(=O)O)cc(C(=O)O)c1	1.26	i
O=C(CCCC(=O)c1ccccc1)NCCc1ccccc1F	1.33	i
COc1ccc(Cl)cc1Nc1ncnc2sc(C)c(S(=O)(=O)N3CCC(C)CC3)c12	-1.27*	-6.69*
COc1ccc(-c2c(-c3ccc(OC)c(C)c3O)n[nH]c2C)cc1	1.34	i
Cc1cccc(-c2nc(CN3CCCC(C(=O)NC4CCC(C)CC4)C3)c(C)o2)c1 (stereo not drawn)	-1.7*	-9.63*
CNC(=O)Oc1ccc2c(c1)[C@]1(C)CCN(C)[C@@H]1N2C	0.44	i
CC(=O)c1cc(NC(=O)c2ccccc2)c(=O)oc1C	-0.57	i
COC(=O)C1(CC2CC(c3cccc(Br)c3)=NO2)CCN(C(=O)OC(C)(C)C)CC1 (stereo not drawn)	1.14	i
N#Cc1ccc(OCC(=O)n2cc(C(=O)c3cc(Cl)cc(Cl)c3O)cn2)cc1	-0.83	i
O=C(CCC(=O)c1ccc(Cl)cc1)OCC(=O)c1ccccc1	-0.55	i
CSc1nsc(SCc2ccc(Cl)cc2)n1	-1.63	i
Cc1ccc(-c2cccc(C(=O)NCc3ccccc3)n2)c2ccccc12	0.53	i
COc1ccc(N2CCN(CCCNS(=O)(=O)c3c(C)noc3/C=C/N(C)C)CC2)cc1	-3.15	i
COC(=O)c1cc(=O)n(CCc2ccccc2F)c(=Nc2ccc(F)c(Cl)c2)s1	1.13	i
Cn1cc(Br)c(C(=O)N2CCN(c3cccc(Cl)c3)CC2)n1	-1.51	i
CN(C(=O)Cn1nnc(-c2ccccc2)n1)C1CCS(=O)(=O)C1 (stereo not drawn)	-0.12	i
OC(CN1CCN(C(c2ccccc2)c2ccccc2)CC1)c1ccc(Br)cc1 (stereo not drawn)	1.23	i
O=C1CC(c2ccco2)Cc2nc(N3CCN(Cc4ccc5c(c4)OCO5)CC3)ncc21 (stereo not drawn)	-0.25	i
Cc1ccnc(NC(=O)c2ccccc2[N+](=O)[O-])c1	2.59	i
O=C(COc1ccccc1)Nc1ccc(S(=O)(=O)N2CCOCC2)cc1	-0.5	i
COc1cc(C(=O)NCCc2ccc3c(c2)OCCO3)ccc1OCC(=O)N1CCOCC1	-0.54	i
COc1ccc(CCNC(=O)CSc2nnc3ccc(-c4ccncc4)nn23)cc1	-0.1	i
Cn1cc(S(=O)(=O)Cc2ccc(F)cc2)c2ccccc21	-0.51	i
COc1ccc(NC(=O)NC(c2ccccc2)c2ccccc2)c(OC)c1	0.59	i
CC(C)(C)OC(=O)N1CCC(c2c(C(=O)N3CCN(C4CCCCC4)CC3)cnn2-c2ccccc2)CC1	-1.65	i
C/C(=N\NC(=O)c1nnn(-c2nonc2N)c1CN(C)c1ccccc1)c1ccccc1O	-0.05	i
Nc1c(C(O)(C(F)(F)F)C(F)(F)F)cc(C(O)(C(F)(F)F)C(F)(F)F)c2ccccc12	-0.08	i
CC(=O)Oc1cc(OC(C)=O)c2c(=O)c(-c3ccc4c(c3)OCCCO4)c(C)oc2c1	0.03	i
Clc1ccc(-c2nnsc2SCc2ccccc2)cc1	0.6	i
Cc1ccc2c(c1)c1c3n2CCN(C(=O)CCl)C3CCC1 (stereo not drawn)	-2.24	i
CCCCN(CCCC)Cc1ccc(C(=O)NNC(=O)Nc2ccc(Cl)cc2)o1	-1.36	i
C=CCn1c(NCc2c[nH]c3ccccc23)nc2ccccc21	-0.8*	-10*
COc1ccccc1C1=NC(c2ccc(F)cc2)N=C1C (stereo not drawn)	-1.39	i
CCOC(=O)/C(N=O)=C(\O)C1CCN(C(=O)OCC)CC1	8.34	i
CCOc1ccc(CN(C(=O)c2oc3cc(C)ccc3c2C)C2CCS(=O)(=O)C2)cc1 (stereo not drawn)	-2.29	i

Fetched one by one from the list above:
molecule	KCNQ2 inh baseline	KCNQ2 inh
Nc1c(C(O)(C(F)(F)F)C(F)(F)F)cc(C(O)(C(F)(F)F)C(F)(F)F)c2ccccc12	-0.08	i
C/C(=N\NC(=O)c1nnn(-c2nonc2N)c1CN(C)c1ccccc1)c1ccccc1O	-0.05	i
CCCCN(CCCC)Cc1ccc(C(=O)NNC(=O)Nc2ccc(Cl)cc2)o1	-1.36	i

(continued)
molecule	KCNQ2 inh baseline	KCNQ2 inh
CCOc1ccc2nc(N(CCN(C)C)C(=O)/C=C/c3cccs3)sc2c1	2.25	i
Cc1nc2ccccn2c1/C(O)=C1\C(=O)C(=O)N(CCN(C)C)C1c1cccnc1 (stereo not drawn)	1.15	i
CCCC(=O)Nc1cc(C(F)(F)F)ccc1N1CCOCC1	3.95	i
CCCCOC(=O)Nc1cc(C)c(Cl)cc1OC	-0.76	i
O=C1/C(=C/c2cccc3ccccc23)CCCc2ccccc21	-0.5*	-6.64*
O=C(COc1ccc2c(c1)C(=O)CC1(CCCCC1)O2)NCc1ccccn1	-0.04	i
Fc1ccc(N2CCN(C3=Nc4cccc5cccc3c45)CC2)cc1	-2.98	i

A portion of the library (hit frequency here may not be typical).
